Compound activity: PubChem BioAssay, Fisher Drug Discovery Resource Center
NPYLR7 ag: mosquito NPYLR7 agonism | 0.15% of 270,000 active | HEK293T NPYLR7/Galpha15, GCaMP6s calcium fluorescence | activation, % at 10 µM; in the data active = activation above about 40%;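 also: 0% = vehicle and 100% = reference agonist at the receptor; some compounds past the cut are filed as inactive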
NPYLR7 ag max-min: further read-out of NPYLR7 ag, marked with its call; activation, %; measured here: Max-Min RFU normalised activation; some inactives read as strong as hits;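 span of the calcium signal over five minutes; 0% = vehicle and 100% = native peptide agonist; compound fluorescence can raise it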
Active calls of the source: *; & = joins results of further samples.

| SMILES | NPYLR7 ag | NPYLR7 ag max-min |
| --- | --- | --- |
| N#Cc1ccc(NCCNC(=O)Cn2ccccc2=O)nc1 | 0 | -2 |
| Cc1onc(-c2ccccc2Cl)c1C(=O)Nc1ccccc1NC(=O)c1ccccc1 | -9 | -13 |
| CCOC(=O)N1CCN(C(=O)c2cc(-c3ccccc3F)nc3cc(C(C)(C)C)nn23)CC1 | -7 | 2 |
| CN(Cc1ccccc1NC(=O)c1cnsn1)C1CCCCC1 | 0 | -1 |
| Fc1cccc(CSc2nnc(-c3ccco3)o2)c1 | 5 | 1 |
| CCCC(O)CN(Cc1ccco1)Cc1ccccc1OC (stereo not given) | 14 | 8 |
| Fc1ccccc1-c1n[nH]c(=S)o1 | -7 | -6 |
| CCOc1ccc(N=C2NN=C(c3ccc(Cl)s3)CS2)cc1 | 8 | 2 |
| COc1cccc(NC(=O)Cn2c3c(c(=O)n(C4CCCCC4)c2=O)CCC3)c1 | -2 | 1 |
| CCC1CCCCN1CCNC(=O)CCc1nnc(C(C)C)o1 (stereo not given) | 2 | 1 |
| Nc1ncn(CCc2ccccc2)n1 | 9 | 3 |
| O=C(Nc1nccs1)C1CCCN(S(=O)(=O)N2CCCCCC2)C1 (stereo not given) | 2 | -2 |
| CC(C)NC(=O)C(C)N(c1ccc(Oc2ccccc2)cc1)S(C)(=O)=O (stereo not given) | -1 | -2 |
| O=S(=O)(NCc1ccco1)c1ccc(F)cc1 | 5 | 11 |
| CC(=O)OCC(=O)[C@H]1CCC2C3CC=C4C[C@@H](O)CC[C@]4(C)C3CC[C@@]21C (stereo not given in full) | -5 | -7 |
| C=CCn1c(SCc2cccc(C(F)(F)F)c2)nnc1-c1ccc(OC)cc1 | 27 | 23 |
| CC(=O)Nc1cccc(NC(=O)COc2coc(CN3CCc4ccccc4C3)cc2=O)c1 | 5 | 5 |
| Cc1ccc(-n2ccnc2SCC(=O)NCc2ccco2)cc1C | -8 | -9 |
| CC(NCc1cnc(-c2ccccc2)[nH]1)c1ccc(Cl)s1 (stereo not given) | 6 | 5 |
| CC(=O)N(C)CC(=O)NC1(c2cccc(Br)c2)CCC1 | -14 | -15 |
| CC(Oc1cccc(Cl)c1)C(=O)N1CCOC(COc2ccc3c(c2)CCCC3)C1 (stereo not given) | 23 | 22 |
| CCC/C=C/c1cncc(C(=O)N2CCCCC2)n1 | 11 | 7 |
| O=C(N1CCN(Cc2cc(=O)c(OCc3cccc(F)c3)co2)CC1)C1(c2ccc(Cl)cc2)CCCC1 | 20 | 33 |
| Cc1nc2c(SCC#N)nnc(-c3ccccc3)c2s1 | 1 | 0 |
| CCc1nc(N(CCC(=O)N2CCN(c3ccccc3F)CC2)CCc2ccccc2)c2ccccc2n1 | 5 | 9 |
| Cc1cccc(OC(F)F)c1NCC(=O)Nc1ccc(C(=O)N(C)C)cc1 | -2 | -1 |
| CN1C(=O)C(=Cc2ccc(-c3ccc(F)cc3)o2)C(=O)N(C)C1=O | -4 | -2 |
| CC(c1cccs1)N(C)C(=O)Nc1ccc(Cl)c2cccnc12 (stereo not given) | 13 | 11 |
| Cc1ccc(/C=C2N=C(/C=C/c3ccc(Cl)cc3)OC/2=O)cc1 | -17 | -19 |
| COc1cccc(Cc2nsc(N(CCC(=O)NC(Cc3ccccc3)c3ccccc3)C(C)C)n2)c1 (stereo not given) | 27 | 24 |
| C(=Nn1cnnc1)c1nc2ccccc2[nH]1 | 1 | 3 |
| COc1cccc(Cn2ccnc2CN(C(=O)c2cccc(F)c2)C2CC2)c1 | 4 | 14 |
| CC(=O)Oc1c(-c2ccc(NC(=O)c3cccc(Cl)c3)cc2)c(-c2cccc(N(C)C)c2)nn1-c1ccc(C)cc1 | 5 | 9 |
| O=C(c1ccccc1Cl)n1sc(=O)c2ccccc21 | -2 | -4 |
| CCOC(=O)C1CCCN(C(=O)CN2CC3=C(C2=O)C(c2ccsc2)NC(=O)N3CC)C1 (stereo not given) | -1 | 7 |
| CCCC(=O)OCC(O)CN(Cc1cccc(F)c1)CC1CC(c2ccccc2)=NO1 (stereo not given) | 1 | 8 |
| COc1ccc(NC(=O)N(C)CCN2CCCC2)cc1OC(F)F | 11 | 11 |
| Cc1ccsc1C(=O)N1CCC1(C)C(=O)Nc1ccc2nc[nH]c2c1 (stereo not given) | 4 | -1 |
| COC(=O)C1=C(O)/C(=C\c2ccccn2)SC1=Nc1ccccc1OC | -3 | 5 |
| COc1ccc(CCCC(=O)N2CC3(CCNCC3)CC2C(=O)O)cc1 (stereo not given) | 3 | 8 |
| N#CCCN(CCC#N)C(=O)c1ccc([N+](=O)[O-])s1 | 4 | 10 |
| Cc1cc(C)c(C(N)=O)c(N(C)Cc2ccsc2)n1 | 11&6 | 12&3 |
| CCN1CCN(c2nc(C)c3c(n2)CC(c2cccs2)CC3=O)CC1 (stereo not given) | -1 | -4 |
| CC1=C[C@@H](CNC(=O)c2ccco2)[C@H](C(C)C)C[C@H]1CC(=O)Nc1ccccn1 | -11 | -15 |
| COc1ccccc1Oc1cc(C)nc(SCc2cccc(C#N)c2)n1 | 17 | 27 |
| COc1ccc(OC)c(CN(Cc2ccc(F)cc2)Cc2nc(C(=O)NCc3ccncc3)co2)c1 | 17 | 34 |
| CC(C)NC(=O)NCC12CC3CC(CC(C3)C1)C2 | -23 | -28 |
| O=C(Cn1nc2c(c1NC(=O)c1cc(=O)c3ccccc3o1)CSC2)NCC1CCCO1 (stereo not given) | -6 | -6 |
| C=CCN(Cc1nccn1Cc1ccc(Cl)c(Cl)c1)C(=O)NCCC | 3 | 8 |
| COCCNC(=O)C(NC(=O)c1ccc(OC)cc1)C1CCN(S(=O)(=O)c2ccc(Cl)cc2)CC1 (stereo not given) | 7 | 8 |

The list continues:
| SMILES | NPYLR7 ag | NPYLR7 ag max-min |
| --- | --- | --- |
| COC(C)c1cccc(-c2ccc(CNC(C)=O)cn2)c1 (stereo not given) | 6 | 5 |
| Cc1nn(-c2ccccc2)c(Oc2ccc(Cl)cc2)c1CN(CC(O)COCC(C)C)C(C)C (stereo not given) | -2 | 4 |
| CCOC(=O)C1=C(C)N=c2s/c(=C/c3ccccc3Cl)c(=O)n2C1c1ccccc1F (stereo not given) | -4 | -7 |
| O=C(c1ccccc1-n1cncn1)N1C[C@@H]2[C@H](C1)[C@H]1CC[C@@H]2O1 | 1 | -2 |
| CCOC(=O)N1CCN(C(=O)c2ccc(N3CCC(NC(C)c4cn(C)nc4C)CC3)cc2)CC1 (stereo not given) | -1 | 1 |
| CNC(=O)c1cc(=O)c(OCc2ccccc2)cn1C | 2 | 0 |
| COc1ccc(Br)cc1CC(=O)OCc1ncnn1C | -1 | -3 |
| c1ccc(OC2CCN(Cc3ccc(-c4csnn4)cc3)CC2)nc1 | -1 | 13 |
| Cc1ccc(Nc2nc(-c3ccc(O)cc3O)cs2)nc1 | 13 | 2 |
| O=C(CN1CCN(S(=O)(=O)c2ccc(F)cc2)CC1)N1CCOCC1 | 14 | 5 |
| CCOC(=O)c1ccccc1NC(=O)N1CCN(CCCOC(c2ccc(Cl)cc2)c2ccc(Cl)cc2)CC1 | 4 | -1 |
| CC(C)Oc1ccc(C(O)=C2C(=O)C(=O)N(CCCN(C)C)C2c2ccccc2F)cc1 (stereo not given) | 13 | 15 |
| O=C1CN(C(=O)c2ccc(CN3CCOCC3)cc2)c2ccccc2N1 | -1 | -1 |
| Cc1ccccc1CSCCNC(=O)C1(N)CC1 | 3 | -13 |
| CN(C)Cc1c(O)ccc2c(=O)c(Oc3ccccc3)coc12 | 5 | 4 |
| CS(=O)(=O)c1ccc(NC(=O)c2ccc(Cl)c(Cl)c2)cc1 | -8 | -6 |
| CC1CCC2(CC1)NC(=O)C(C#N)C(=S)N2c1ccccc1 (stereo not given) | 1 | -3 |
| CN(C)c1ccc(CN(CC2CCCO2)S(=O)(=O)c2ccc3c(c2)CCC3)cc1 (stereo not given) | -5 | -2 |
| O=C(CCCn1nnc(-c2ccc(F)cc2)n1)Nc1cnc2n1CCCC2 | 8 | 5 |
| CC(C)(C)CC(C)(C)Nc1c(-c2ccc[nH]2)nc2ccc(Cl)cn12 | 34 | 32 |
| CC(=O)NCCNc1cc(N(C)C)nc(C)n1 | 2 | 0 |
| CCOc1ccc(N=C2S/C(=C/c3cccc(OC)c3OC)C(O)=C2C(=O)OC)cc1 | -22 | -17 |
| CCC(C(=O)Nc1ccc(-n2nc(OCC(C)C)nc2-c2ccc(Cl)c(Cl)c2)cc1)c1ccccc1 (stereo not given) | 22 | 32 |
| O=C(CSc1ccc(-c2ccc3c(c2)OCO3)nn1)N1CCCC1 | 0 | 1 |
| COCCN1CCN(C(=O)c2cc(COc3ccc(F)c(F)c3)on2)CC1 | 3 | 0 |
| Cc1cc(O)c(C2=Nc3ccccc3SC(c3ccccc3Br)C2)c(=O)o1 (stereo not given) | 4 | 4 |
| c1ccc(-n2ncc3c2CCNC3)nc1 | 5 | 4 |
| CC1(C(=O)NCc2ccc3c(c2)OCO3)CCN1Cc1csc2ccccc12 (stereo not given) | 13 | 8 |
| O=C1CSC(c2ccc(F)cc2)N1c1ccc(F)cc1F (stereo not given) | -3 | -9 |
| CC1C(=O)N(c2cccc(Br)c2)CCN1C(=O)c1ccc(F)cc1 (stereo not given) | -2 | 3 |
| O=S(=O)(NC1CCN2CCCCC12)c1ccc2c(c1)OCCO2 (stereo not given) | 0 | -1 |
| CCCN(CC(=O)N(CCc1ccc(OC)c(OC)c1)Cc1sccc1C)C(=O)NC1CCCCC1 | -8 | -1 |
| COCC1CCN(C(=O)c2ccc(OC3CCN(S(=O)(=O)N(C)C)CC3)cc2)CC1 | 16 | 11 |
| CC(C)=CCOc1ccc2c(C)cc(=O)oc2c1 | 9 | 6 |
| COc1ccc(C(=O)N2CCc3ccccc3C2c2ccc(C)cc2)cc1 (stereo not given) | 18 | 11 |
| COc1ccc(CC2CN(C(=O)c3cnc(-c4ccccc4)nc3)CCO2)cc1 (stereo not given) | -2 | -5 |
| CN(CCCc1nc2ccccc2[nH]1)C(=O)C1C2CCCCC21 (stereo not given) | 7 | -1 |
| CC(CN(C)C(=O)OC(C)(C)C)C(=O)NCCc1c(F)cccc1F (stereo not given) | 3 | 2 |
| Cc1ccc(C2=N/C(=C\c3ccco3)C(=O)O2)cc1C | -3 | -9 |
| COc1cc(-c2onc(C)c2C(=O)NCC2CCCO2)cc(OC)c1OC (stereo not given) | 3 | -3 |

Entries shown so far with a cyano group (5):
| SMILES | NPYLR7 ag | NPYLR7 ag max-min |
| --- | --- | --- |
| N#Cc1ccc(NCCNC(=O)Cn2ccccc2=O)nc1 | 0 | -2 |
| Cc1nc2c(SCC#N)nnc(-c3ccccc3)c2s1 | 1 | 0 |
| N#CCCN(CCC#N)C(=O)c1ccc([N+](=O)[O-])s1 | 4 | 10 |
| COc1ccccc1Oc1cc(C)nc(SCc2cccc(C#N)c2)n1 | 17 | 27 |
| CC1CCC2(CC1)NC(=O)C(C#N)C(=S)N2c1ccccc1 (stereo not given) | 1 | -3 |

The listing continues.
| SMILES | NPYLR7 ag | NPYLR7 ag max-min |
| --- | --- | --- |
| CC1=C(C(=O)OCC(C)C)C(c2ccc(OCc3ccccc3)cc2)C2=C(CCCC2=O)N1 (stereo not given) | 3 | 9 |
| N#Cc1cccc(NC(=O)CN(Cc2ccco2)Cc2cccs2)c1 | 6 | 3 |
| CCOc1ccccc1CC(=O)N1C[C@H]2C[C@H](O)[C@H](O)C[C@H]2C1 | 6 | 3 |
| COc1ccc2nc(CNC(=O)Cc3nc(C)sc3C)[nH]c2c1 | -4 | -10 |
| CC1=C(C=NNC(=O)C23CC4CC(CC(C4)C2)C3)C(=O)N(C)C(=O)C1C#N (stereo not given) | 5 | 4 |
| Cc1cc(C(F)F)n2nc(C(=O)Nc3cc(OCC(F)(F)F)cc([N+](=O)[O-])c3)nc2n1 | -1 | 0 |
| COCCN(CC(=O)Nc1nc(CC(=O)NC2CCN(Cc3ccccc3)CC2)cs1)C(=O)c1ccc(OC)cc1 | -5 | -6 |
| COCCNc1nnc(SC2CCc3ccc(F)cc32)s1 (stereo not given) | 2 | 0 |
| O=C(CCn1nnnc1CN1CCOCC1)N1CCCC1c1ccc(F)cc1 (stereo not given) | 8 | 2 |
| CCCN(Cc1csc(COc2ccc(C)c(C)c2)n1)C(=O)c1ccc(Cl)cc1 | -7 | -3 |
| CCCCc1oc2ccccc2c1CN(C)S(=O)(=O)N(C)C(C)C | -2 | -4 |
| CCOC(=NCCN1CCCC1)NC(=O)c1cccc(C(F)(F)F)c1 | -3 | 0 |
| COc1cc(OC)cc(C(=O)Nc2nc(CN3CC(C)CC(C)C3)cs2)c1 (stereo not given) | -9 | -12 |
| O=C(Nc1ccccc1Cl)N1CCN(c2ccc(-c3ccco3)nn2)CC1 | -2 | -3 |
| COc1cc(C)ccc1-n1c(CCC(=O)N2CCc3ccccc3C2)cc2c1-c1ccccc1OC2 | 1 | -1 |
| CC(C)COc1nc(-c2cccc(C(F)(F)F)c2)n(-c2ccc(NC(=O)c3ccc(Cl)c(Cl)c3)cc2)n1 | 19 | 22 |
| CCCCN1C(=O)C(NC(=O)CC(C)C)(C(F)(F)F)C2=C1CC(C)(C)CC2=O (stereo not given) | -8 | -10 |
| Cc1cccnc1CNC(=O)C1(C)CCCN1CC(C)C (stereo not given) | 3 | 1 |
| O=C(CC1CCS(=O)(=O)C1)Nc1ccc(Oc2ccnc3ccccc23)cc1 (stereo not given) | -3 | -7 |

Some of the entries so far, with two lines to a compound:
Value order – NPYLR7 ag | NPYLR7 ag max-min
CCOC(=NCCN1CCCC1)NC(=O)c1cccc(C(F)(F)F)c1
→ -3 | 0
O=C(CC1CCS(=O)(=O)C1)Nc1ccc(Oc2ccnc3ccccc23)cc1 (stereo not given)
→ -3 | -7
Cc1cccnc1CNC(=O)C1(C)CCCN1CC(C)C (stereo not given)
→ 3 | 1
CCCCN1C(=O)C(NC(=O)CC(C)C)(C(F)(F)F)C2=C1CC(C)(C)CC2=O (stereo not given)
→ -8 | -10
O=C(Nc1ccccc1Cl)N1CCN(c2ccc(-c3ccco3)nn2)CC1
→ -2 | -3

Only part of the results is shown; the hit share may differ from the screen's.
